Assay outcomes from PubChem.
HPGD inh – inhibitors of human 15-hydroxyprostaglandin dehydrogenase (HPGD); P15428; purified HPGD, NADH fluorescence kinetic, PGE2 substrate; Potency, µM, inactives show at the top dose activity change, negative = inhibition, most hits filed as inhibitors; 4.3% of 150,000 active; AID 894; active = well fitted inhibition curve with a large enough effect (not every such curve was filed as active); inconclusive = small, poorly fitted or top-dose-only effect, or another doubt; inactive = no such curve, though single readings can be large or run the other way;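 note: top concentration of the series not given in the record; plate controls included wells without enzyme; inactives centre near -10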
Target sequence (P15428 whole entry, looked up): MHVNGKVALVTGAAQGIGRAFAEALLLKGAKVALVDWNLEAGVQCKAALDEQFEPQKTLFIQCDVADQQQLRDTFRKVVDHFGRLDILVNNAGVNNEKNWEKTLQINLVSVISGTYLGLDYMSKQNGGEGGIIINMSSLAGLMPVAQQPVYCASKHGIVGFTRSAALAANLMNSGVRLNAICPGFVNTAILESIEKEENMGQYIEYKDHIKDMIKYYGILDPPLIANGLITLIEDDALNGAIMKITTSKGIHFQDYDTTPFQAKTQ
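NADH formation kinetics: reaction with 30 uM PGE2 and 1 mM NAD+ (final), 20 nM enzyme, Tris-HCl pH 8 with Tween 20, after 15 min compound preincubation at room temperature. Fluorescence change, last versus first of five reads.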
* marks the source's active call; other numbers are inactive results; ? = inconclusive; & = joins results of further samples. % is set by controls: 0 for no effect and ±100 for the full control effect; potency is the fitted concentration of half-maximal effect. Some of the compounds tested; the hit share may differ from the screen's.

SMILES	HPGD inh
COc1cccc(NC(=O)c2ccccc2-c2nc(-c3ccc(F)cc3)no2)c1	?
COc1ccc(C(=O)/C=C/Nc2cccc(O)c2)cc1	?
O=C(NC1(C(F)(F)F)C(=O)Nc2c1c(=O)[nH]c(=O)n2-c1ccccc1)c1cccnc1 (stereo unspecified)	-9%
O=C(c1ccc(-c2ccccc2)cc1)N1CCN(c2ncccn2)CC1	-30%
COC(=O)c1cc(OC)c(OC)cc1NC(=O)CCCCCN1C(=O)CCC1=O	-18%
CC(C)CC(c1nnnn1C(C)(C)C)N1CCN(C2CCCC2)CC1 (stereo unspecified)	-4%
COc1ccccc1S(=O)(=O)Cc1ccc(C(=O)N2CCN(c3ccccn3)CC2)o1	-12%
COc1ccc(Cl)cc1C(=O)NCc1cn(C)nc1C	-9%
CCn1cc(C(=O)Nc2ccc(NC(=O)c3ccco3)cc2)c(=O)c2ccc(C)nc21	-12%
NC(=O)c1c(-c2ccccc2)oc2ccc(O)cc12	-14%
COc1cccc2cc(C(C)=O)c(=O)oc12	1%
CC(NC(=O)CC(O)(C(F)(F)F)C(F)(F)F)c1ccccc1 (stereo unspecified)	-8%
CCOC(=O)NC(=O)C(=CNc1ccccc1C)C(=O)NC(=O)OCC	-8%
Brc1ccc(-c2nnc(-c3ccccc3)c(N3CCSCC3)n2)cc1	-17%
O=S(=O)(Nc1nc(CN2CCOCC2)nc2sc3c(c12)CCCC3)c1cc(F)ccc1F	-18%
CCCOC(=O)c1ccc(NC(=O)C(CC)CC)cc1	-7%
Cn1c(=O)oc2cc(S(=O)(=O)N3CCCC3)ccc21	-11%
O=C(CSc1nnc(-c2cccs2)n1Cc1ccccc1)NCc1ccc2c(c1)OCO2	-10%
CCCc1ccc(C(C)NC(=O)c2cnccn2)cc1 (stereo unspecified)	-7%
Cc1ccc(C(=O)NCc2ccccc2)cc1Br	25µM*
O=C(CCCn1c(=O)[nH]c2cc(Cl)ccc2c1=O)NCCCN1CCCC1	-13%
COc1ccccc1NC(=O)c1cc(S(=O)(=O)N2CCOCC2)ccc1Cl	0%
COc1ccc(-c2cc(=NC(CC(C)C)C(=O)O)c3cc(C)ccc3o2)cc1 (stereo unspecified)	?
COc1ccccc1C(c1nnnn1C(C)(C)C)N1CCCCCC1 (stereo unspecified)	-1%
CC(=O)Nc1ccc2nc(-c3cccnc3)[nH]c2c1	?
CCCCn1c(N)c(N(CCC(C)C)C(=O)COC(=O)c2ccco2)c(=O)[nH]c1=O	2%
Cc1cc(C)nc(/N=C2\NC(=O)CC(C(=O)O)N2c2ccc(Oc3ccccc3)cc2)n1 (stereo unspecified)	13µM*
CCCNC(=O)CN(Cc1ccco1)S(=O)(=O)c1ccc(OCC)cc1	-10%
Cc1ccc(C)c(NC(=O)NCc2ccc(Cl)cc2)c1	2%
CC1CCN(c2nnc(N)s2)CC1	?
CCOC(=O)CNC(=O)CSc1nc2ncc(Br)cc2[nH]1	?
COc1ccc(N2CCN(c3oc(COc4ccc(Cl)cc4Cl)nc3C#N)CC2)cc1	-16%
COc1ccc2c(c1)c1nc3ccccc3nc1n2Cc1ccc(OC)c(OC)c1	-10%
CCCC1CCC(c2ccc(C(N)=O)cc2)CC1 (stereo unspecified)	-7%
O=C(CCN1C(=O)c2ccccc2C1=O)NC(=S)Nc1ccccc1	-2%
O=C(Oc1ccc(Cl)c2cccnc12)c1cccc([N+](=O)[O-])c1	-9%
Cc1cc(C)n(-c2ccc([N+](=O)[O-])cc2)n1	-6%
CC1CCN(c2ccc(C(=O)Nc3nnc(C4CC4)s3)cc2[N+](=O)[O-])CC1	-7%
COC(=O)c1cc(NCc2ccccc2F)ccc1N1CCOCC1	-8%
COc1ccc(NC(=O)Cn2nnc(C(=O)NCc3ccccc3)c2N)cc1Cl	-6%
COCCCNC(=O)CCn1c(=O)c2ccccc2n(CC(=O)Nc2cc(Cl)ccc2C)c1=O	-2%
O=C(c1ccccc1Oc1ccccc1)N1CCN(c2ccc(F)cc2)CC1	-12%
CN(C)c1nc(N)nc(CSc2n[nH]c(-c3ccccc3)n2)n1	4µM*
Cc1ccccc1Cn1nc(C)c(NC(=O)c2sc3ccccc3c2Cl)c1C	-10%
CC(=O)Nc1ccc(C(=O)CSc2nnnn2C(C)C)cc1	-11%
Cc1ccc(SCc2[nH]nc3c2C(c2ccc(C)o2)C(C#N)=C(N)O3)cc1 (stereo unspecified)	?
Cc1cc(C)nc(SCc2ccc(C(=O)N/N=C/c3cccc(O)c3O)cc2)n1	-13%
O=C1C(Cl)=C(N2CCN(c3ccccc3[N+](=O)[O-])CC2)C(=O)c2ccccc21	-21%
COc1ccc(Nc2nc3ccccc3nc2NS(=O)(=O)c2cccs2)cc1	-15%
CCOc1cc(/C=C(\C#N)C(=O)NCC2CCCO2)ccc1O (stereo unspecified)	?

(continued)
SMILES	HPGD inh
O=C(NCCN1CCOCC1)c1noc2c1CCc1ccccc1-2	-21%
CC(C)(C)OC(=O)N1CCC[C@@H]1C(=O)N1CCC(C(=O)O)CC1	-9%
NC(=O)c1ccc(NC(=O)c2ccc3c(c2)OCO3)cc1	-7%
COc1cc2[nH]c(=S)n(NC(=O)CC(C)C)c(=O)c2cc1OC	-22%
CCOc1c(Br)cc(CNCc2cccs2)cc1OC	-4%
O=C1C2C3CCC(C3)C2C(=O)N1CNc1ccccc1 (stereo unspecified)	-1%
C#CCOCCOCCOCCNc1nc(N2CCN(C(=O)Cn3cc(CCO)nn3)CC2)nc(N2CCN(C(=O)[C@H](C(C)C)n3cc(CCO)nn3)CC2)n1	-9%
N#CCC(=O)N1CCn2c1nc1ccccc12	-10%
O=C(c1cccc(Cl)c1)N(Cc1cccs1)C1CCS(=O)(=O)C1 (stereo unspecified)	-8%
Cc1cc2nc(SC(C)C(=O)O)[nH]c2cc1C (stereo unspecified)	-4%
CC(=O)Nc1ccc(NC(=O)c2ccccc2Sc2ccc([N+](=O)[O-])cc2Cl)cc1	-17%
O=C(CN1C(=O)C2CC=CCC2C1=O)NC1CCCc2ccccc21 (stereo unspecified)	-6%
COC(=O)N1CC=CC1(C)C(=O)NCc1cc(F)cc(C(F)(F)F)c1 (stereo unspecified)	-10%&-1%
CCc1ccc(OCC(=O)NC(=S)Nc2ccc(C(C)=O)cc2)c(Br)c1	-1%
Cc1ccc(SCc2cc(=O)[nH]c(/N=C(\N)Nc3ccc(C)c(C)c3)n2)cc1	-14%
c1ccc(C2[C@H]3CN(CC4CCCCC4)[C@H](c4ccccc4)C34CC2(c2cccnc2)C4)cc1 (stereo partly specified)	1%
Clc1ccc(NC2=NCCC2)cc1Cl	-2%
CC(=O)N1CCCc2cc(S(=O)(=O)N3CCC(C)CC3)ccc21	-10%
CCOc1ccc(-n2c(COc3ccccc3)nnc2SCC(N)=O)cc1	-5%
O=C(OCC(=O)N1CCN(C(=O)c2ccco2)CC1)C1=COCCO1	-1%

Part of the list above, with bars between the fields:
canonical_smiles | HPGD inh
CCOC(=O)CNC(=O)CSc1nc2ncc(Br)cc2[nH]1 | ?
COc1ccc(N2CCN(c3oc(COc4ccc(Cl)cc4Cl)nc3C#N)CC2)cc1 | -16%

New compounds follow.
SMILES	HPGD inh
CC(=O)c1c(C(C)=O)c(C)n(-c2ccc(N)cc2)c1C	-10%
O=C(c1cccnc1)N1CCN(S(=O)(=O)c2ccc3ccccc3c2)CC1	7%
Cc1ccc(N)cc1CN1CCCC1=O	0%
COC(=O)C(Cc1ccccc1)NC(=O)COc1ccc(C(C)(C)C)cc1 (stereo unspecified)	-18%
COc1ccc(NC(C)=O)cc1NC(=O)CSc1nnc(-c2ccc(F)cc2)n1N	-2%
Cc1ccc(C(=O)Nc2nc(C)c(C)s2)o1	-14%
Cc1nc(C)c(CCNC(=O)c2ccccc2Br)s1	-30%
Cc1ccc(CNc2oc(COc3ccccc3Cl)nc2C#N)cc1	-9%
COc1ccc(NC(=O)N2CCCC3(CCN(C(=O)c4c(C)noc4C)CC3)C2)cc1	-7%
COc1ccc(S(=O)(=O)NC(Cc2cnc[nH]2)C(=O)O)cc1 (stereo unspecified)	-9%
O=C(c1cncc(Br)c1)N1CCN(c2ccc([N+](=O)[O-])cc2)CC1	-27%
CCc1cc2c(NC(Cc3c[nH]c4ccccc34)C(=O)O)nc(C)nc2s1 (stereo unspecified)	-26%
Cc1ccc(S(=O)(=O)N2CCCC(c3nnc4n3-c3ccccc3SC4)C2)cc1 (stereo unspecified)	-2%
O=S(=O)(c1cccc(-c2csc(-c3ccccc3)n2)c1)N1CCOCC1	-13%
CC(=O)Nc1ccc(S(=O)(=O)Nc2ccc(N3CCOCC3)c(F)c2)cc1	-8%
O=C(NCCCn1ccnc1)C(=O)NCc1ccccc1	6%
CC(C)C(OC(=O)C1CCCO1)C(=O)NC1CCCC1 (stereo unspecified)	?
Cc1ccsc1C(=O)OC1CCOC1=O (stereo unspecified)	-9%
COc1ccccc1C(=O)N1CCN(CCc2ccccc2)CC1	-5%
COC(=O)C(CC(C)C)NC(=O)CSc1nc(-c2ccccc2)c(C#N)c(=O)[nH]1 (stereo unspecified)	-26%
CCOc1ccccc1C(=O)NC1CC2CCCC(C1)N2Cc1nnnn1Cc1ccco1 (stereo unspecified)	0%
Nc1cc(-c2ccccc2)nn1Cc1ccc(Cl)cc1	-16%
O=C(CSCc1ccccc1)Nc1cccc(C(=O)Nc2ccccc2C(=O)O)c1	-27%
Cc1ccc(N=C2NC(=O)c3cccc([N+](=O)[O-])c32)cc1	-5%
CCOc1ccc(-c2nnc(N)s2)cc1	-14%
O=C(Cn1c(=O)oc2ccccc21)NC(=O)NCc1ccco1	-15%
O=C(CSCc1ccc([N+](=O)[O-])cc1)NC1CC1	0%
Cc1cc(=O)n2[nH]c(-c3ccccc3Cl)cc2n1	0%
CC(C)c1nc2sc3c(=O)[nH]cnc3c2c2c1CCC2	?
CNC(=O)c1c(I)c(C(=O)NCC(=O)Nc2c(I)c(C(=O)O)c(I)c(C(=O)NCCO)c2I)c(I)c(N(C)C(C)=O)c1I	-2%

A draw from above in order of formula weight, lowest first.
SMILES	HPGD inh
COc1cccc2cc(C(C)=O)c(=O)oc12	1%
Cc1cc2nc(SC(C)C(=O)O)[nH]c2cc1C (stereo unspecified)	-4%
CC(=O)Nc1ccc2nc(-c3cccnc3)[nH]c2c1	?
O=C(CSCc1ccc([N+](=O)[O-])cc1)NC1CC1	0%
O=C1C2C3CCC(C3)C2C(=O)N1CNc1ccccc1 (stereo unspecified)	-1%
CC(C)c1nc2sc3c(=O)[nH]cnc3c2c2c1CCC2	?
COC(=O)c1cc(NCc2ccccc2F)ccc1N1CCOCC1	-8%
O=C(CCN1C(=O)c2ccccc2C1=O)NC(=S)Nc1ccccc1	-2%
COC(=O)N1CC=CC1(C)C(=O)NCc1cc(F)cc(C(F)(F)F)c1 (stereo unspecified)	-10%&-1%
O=C(c1cccc(Cl)c1)N(Cc1cccs1)C1CCS(=O)(=O)C1 (stereo unspecified)	-8%
Cc1ccc(SCc2[nH]nc3c2C(c2ccc(C)o2)C(C#N)=C(N)O3)cc1 (stereo unspecified)	?
COc1ccc(Nc2nc3ccccc3nc2NS(=O)(=O)c2cccs2)cc1	-15%
COc1ccc(NC(=O)N2CCCC3(CCN(C(=O)c4c(C)noc4C)CC3)C2)cc1	-7%
CC(=O)Nc1ccc(NC(=O)c2ccccc2Sc2ccc([N+](=O)[O-])cc2Cl)cc1	-17%
O=C(CSc1nnc(-c2cccs2)n1Cc1ccccc1)NCc1ccc2c(c1)OCO2	-10%

Additional records.
SMILES	HPGD inh
Cc1cc(O)ccc1N/C=C(\C#N)c1nc2ccccc2o1	?
Cc1cc2nnc(SC3CCCCN(C(=O)c4ccc(F)cc4)C3=O)n2c2ccccc12 (stereo unspecified)	?
Nc1ccc(Cl)c(NC(=O)c2cccs2)c1	-17%
Fc1ccccc1CSc1ncnc2sc3c(c12)CCCC3	-17%
Cc1cc(C)nc(SCC(=O)OCC(=O)Nc2nc3ccccc3s2)n1	?
Cc1ccc(C)c(C(=O)NCCN(C)C)c1	-5%
CC(=O)Nc1cccc(OCC(=O)NC(C)C(C)C)c1 (stereo unspecified)	-21%
COc1ccc2c(c1)OCC(Cc1ccc(O)c(OC)c1)C2=O (stereo unspecified)	?
CC1CCC(O)([C@](C)(C(=O)O)c2ccccc2)CC1 (stereo partly specified)	0%
c1ccc(-c2ccccc2-c2nc(-c3ccncc3)no2)cc1	-23%
CCN1C(=O)[C@H]2[C@H]3[C@H](O)[C@H](O)C/C(=N\O[C@H](C)c4cn([C@H](CO)Cc5ccccc5)nn4)[C@@H]3CC[C@H]2C1=O	-6%
Cc1cc(C(=O)NCCCC(=O)O)c(C)o1	-6%
CCOC(=O)c1ccc(N2C(=O)C(O)=C(C(C)=O)C2c2ccccn2)cc1 (stereo unspecified)	-21%
CCOc1ccc(N2C(=O)C3C(c4ccccc4F)NN(C(=O)c4ccc(C)cc4)C3C2=O)cc1 (stereo unspecified)	-23%
COC/C=C/C1=CC2=CC(=O)C(C)(OC(=O)c3cnc4ccccc4n3)C(=O)C2=CN1C(CO)CO (stereo unspecified)	-6%
CC(=O)c1c(COC(=O)c2ccco2)nc2ccccc2[n+]1[O-]	?
CNc1nc(-c2ccccc2C(F)(F)F)nc2ccccc12	-9%
Cc1occc1C(=O)NNC1=CC(=O)CC(C)(C)C1	-17%
CC1=C(C(=O)OCc2ccccc2)C(c2ccccc2OC(F)F)NC(=O)N1 (stereo unspecified)	-2%
CCOC(=O)c1c(CN2CCC(C)CC2)oc2ccc(OC)cc12	-11%
COc1ccc(-n2c3nc4ccccc4nc3c3c(=N)oc(C)nc32)cc1	-14%
Cc1cc(C(=O)CSc2nnc(Cc3ccccc3)o2)c(C)n1Cc1ccc2c(c1)OCO2	-13%
O=C(NCC1CCCO1)C1CC(=O)N(C2CCCCCC2)C1 (stereo unspecified)	?
COCCNc1nc(-c2ccccc2CN(C)C)nc2ccccc12	-9%
